Env fusion inh: inhibitors of HIV-1 Env-driven cell-cell fusion, primary screen, HeLa-JRFL effector, CEM21 target cells, luciferase; inhibition, % at 12.3 µM; 1.1% of 360,000 active; AID 651610, 2012;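 active = mean replicate inhibition score of at least 50 and every replicate individually at or above 50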;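 note: 0% = plate neutral controls and 100% = maraviroc near 300 nM; one replicate is shown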
* marks the source's active call; other numbers are inactive results; [ ] = remark or other dose. These rows are one share of the data, so the mix of outcomes need not match the whole.

SMILES	Env fusion inh
CO[C@H]1CC[C@H]2CCOc3c(C#N)cccc3C(=O)N(C)CC3(CCCCC3)CC(=O)N(C)C[C@H]1O2	-16.0[16.7 µM]
CN1OC[C@@H]2CN(C(=O)C3CCCCC3)[C@H](c3ccc(N4CCCCC4)cc3)C[C@@H]21	-19.6
CCCN(C)C[C@H]1OCCCC[C@@H](C)Oc2ccc(NC(=O)Nc3ccc(F)cc3)cc2C(=O)N([C@@H](C)CO)C[C@H]1C	-12.4[16.7 µM]
C/C=C/c1ccc2c(c1)O[C@@H](CN(C)C(=O)c1cnccn1)[C@@H](C)CN([C@H](C)CO)S2(=O)=O	-13.5[16.7 µM]
COC(=O)C[C@@H]1C[C@H]2c3cc(NS(C)(=O)=O)ccc3O[C@H]2[C@@H](CO)O1	-0.9[16.7 µM]
C[C@H](NC(=O)C[C@H]1C[C@H]2c3cc(NS(=O)(=O)c4ccc(F)cc4)ccc3O[C@H]2[C@H](CO)O1)c1ccccc1	10.7[16.7 µM]
CCCCCCCCN1C(=O)[C@@H](CC(=O)NCCCOC)C[C@@]2(C(=O)OC)C1=C[C@H](C(C)(C)C)O[C@@H]2C	10.1
COC(=O)C1=C(C)N(C)C(=NCc2cc(OC)c(OC)c(OC)c2)NC1c1ccc(Cl)cc1 (stereo not given)	-3.6
C[C@H]1CN([C@@H](C)CO)C(=O)c2cc(C#Cc3ccccc3F)cnc2O[C@@H]1CN(C)C(=O)C1CCCCC1	8.5[16.7 µM]
CCCCc1c(-c2ccccc2OC)ncn1Cc1ccc(C)cc1	61.3*
Cc1noc(C)c1NC(=O)N(C)C[C@H]1Oc2ccc(NC(=O)Cc3ccccc3)cc2C(=O)N([C@H](C)CO)C[C@H]1C	-14.1[16.7 µM]
C[C@H](CO)N1C[C@H](C)[C@@H](CN(C)S(=O)(=O)c2ccc(F)cc2)Oc2ccc(NS(=O)(=O)c3cn(C)cn3)cc2CC1=O	64.1*[16.7 µM]
CC(C)N(C[C@@H]1CSCCS(=O)(=O)N1)C1CCCCC1	25.6
CO[C@@H]1CN(C)C(=O)c2ccc(NC(=O)c3cccc(Oc4ccccc4)c3)cc2OC[C@@H](C)NC[C@H]1C	4.8[16.7 µM]
CCCC#Cc1ccc2c(c1)O[C@@H](CN(C)C(=O)Nc1ccccc1F)[C@@H](C)CN([C@H](C)CO)S2(=O)=O	-33.3[16.7 µM]
C[C@@H]1CN([C@@H](C)CO)S(=O)(=O)c2ccc(C#CC3CC3)cc2O[C@H]1CN(C)C(=O)Nc1cc(F)ccc1F	-4.1[16.7 µM]
Cc1noc(C)c1NC(=O)Nc1ccc2c(c1)CC(=O)N([C@@H](C)CO)C[C@H](C)[C@@H](CN(C)Cc1ccc(-c3ccccc3)cc1)O2	11.0[16.7 µM]
CN(C)c1ccc2c(c1)[C@H]1C[C@H](CC(=O)NCCN3CCCCC3)O[C@H](CO)[C@H]1O2	1.8[16.7 µM]
CO[C@@H]1[C@H](O)CC[C@]2(O)CN(c3ccc(F)cc3)[C@](C)([C@H](O)CC=C(C)C)[C@@H]12	4.1
CC(C)NC(=O)Nc1ccc2c(c1)C(=O)N([C@@H](C)CO)C[C@@H](C)[C@@H](CN(C)C(=O)Nc1ccccc1)OCCCC[C@@H](C)O2	24.6[16.7 µM]
CCCC(=O)Nc1ccc2c(c1)C(=O)N(C)C[C@H](OC)[C@@H](C)CN(Cc1nccs1)[C@H](C)CO2	21.3[16.7 µM]
CC(=O)Oc1cc(C)c(Cl)c2c(OC(C)=O)cc(C(C)=O)c(O)c12	2.9
CO[C@H]1CN(C)C(=O)c2cc(NC(=O)c3ccno3)ccc2OC[C@H](C)N(S(C)(=O)=O)C[C@@H]1C	11.9[16.7 µM]
CO[C@@H](CN(C)C(=O)C1CC1)[C@@H](C)CN(C(=O)Nc1ccc(C(F)(F)F)cc1)[C@H](C)CO	-20.0[16.7 µM]
COC(=O)[C@]12C[C@H](CC(=O)NCCCN3CCCC3=O)C(=O)N(CCC3=CCCCC3)C1=C[C@H](C(C)(C)C)O[C@@H]2C	44.9

Continued, starting with the last 5 of the part before.
SMILES	Env fusion inh
CCCC(=O)Nc1ccc2c(c1)C(=O)N(C)C[C@H](OC)[C@@H](C)CN(Cc1nccs1)[C@H](C)CO2	21.3[16.7 µM]
CC(=O)Oc1cc(C)c(Cl)c2c(OC(C)=O)cc(C(C)=O)c(O)c12	2.9
CO[C@H]1CN(C)C(=O)c2cc(NC(=O)c3ccno3)ccc2OC[C@H](C)N(S(C)(=O)=O)C[C@@H]1C	11.9[16.7 µM]
CO[C@@H](CN(C)C(=O)C1CC1)[C@@H](C)CN(C(=O)Nc1ccc(C(F)(F)F)cc1)[C@H](C)CO	-20.0[16.7 µM]
COC(=O)[C@]12C[C@H](CC(=O)NCCCN3CCCC3=O)C(=O)N(CCC3=CCCCC3)C1=C[C@H](C(C)(C)C)O[C@@H]2C	44.9
CC(C)NC(=O)Nc1ccc2c(c1)C(=O)N([C@@H](C)CO)C[C@@H](C)[C@H](CN(C)Cc1ccncc1)OCCCC[C@H](C)O2	8.5[16.7 µM]
O=C(CCc1c[nH]c2ccccc12)Nc1ccc(Nc2ccccc2)cc1	5.7
CCCCOCC1CN(CCCC)S(=O)(=O)c2c(cccc2Sc2ccc(SC)cc2)O1 (stereo not given)	34.3
C[C@@H]1CCCCO[C@H](CN(C)C)[C@H](C)CN([C@H](C)CO)C(=O)c2cc(NC(=O)NC3CCCCC3)ccc2O1	1.1[16.7 µM]
COC(=O)c1cc2c(c3c4ccccc4n(S(=O)(=O)c4ccc(OC)cc4)c13)C(=O)N(C)C2	15.3
O=C1C(=Cc2cccs2)CCc2ccccc21	-40.7
COC(=O)[C@]12C[C@H](CC(=O)NCCCCc3ccccc3)C(=O)N(Cc3ccccc3)C1=C[C@H](C(C)(C)C)O[C@@H]2C	-12.5
C[C@H]1CN([C@@H](C)CO)C(=O)c2cc(NS(=O)(=O)c3ccccc3)ccc2O[C@@H]1CN(C)C(=O)Nc1ccc(F)cc1	-11.2[16.7 µM]
COc1ccc(CN(C)C[C@H]2OCCCC[C@H](C)Oc3ccc(NC(=O)C4CCCCC4)cc3C(=O)N([C@@H](C)CO)C[C@H]2C)cc1	4.6[16.7 µM]
O=C(C[C@@H]1C[C@@H]2c3cc(NC(=O)c4ccc5c(c4)OCO5)ccc3O[C@@H]2[C@H](CO)O1)NCCN1CCCCC1	-14.5[16.7 µM]
CCCC(=O)Nc1ccc2c(c1)C(=O)N(C)C[C@H](OC)[C@@H](C)CN(CCC(F)(F)F)[C@@H](C)CO2	3.3[16.7 µM]
C[C@H]1CN([C@@H](C)CO)C(=O)c2cc(NC(=O)Nc3ccc4c(c3)OCO4)ccc2O[C@@H]1CN(C)Cc1ccncc1	3.0[16.7 µM]
CNC[C@H]1OCCCC[C@@H](C)Oc2ccc(NS(=O)(=O)c3ccc(F)cc3)cc2C(=O)N([C@@H](C)CO)C[C@H]1C	-0.7[16.7 µM]
Cc1noc(C)c1C(=O)N(C)C[C@@H]1OCc2ccccc2-c2ccccc2C(=O)N([C@@H](C)CO)C[C@@H]1C	23.2[16.7 µM]
Cc1noc(C)c1NC(=O)Nc1ccc2c(c1)CC(=O)N([C@H](C)CO)C[C@H](C)[C@@H](CN(C)Cc1ccc(-c3ccccc3)cc1)O2	-8.7[16.7 µM]
CC(C)CC#Cc1cnc2c(c1)C(=O)N([C@H](C)CO)C[C@H](C)[C@@H](CN(C)C(=O)c1ccccc1F)O2	-6.2[16.7 µM]
COc1ccc(C#Cc2ccc3c(c2)[C@@H]2[C@@H](CCN2C(=O)C2CCCC2)[C@H](CO)N3)cc1	26.1[16.7 µM]
COC(=O)C1=CC(=O)N2CCN=C2S1	-10.6
CO[C@H]1CN(C)C(=O)c2ccc(NC(=O)c3nc4ccccc4s3)cc2OC[C@H](C)NC[C@@H]1C	9.2[16.7 µM]
C[C@H]1[C@@H](c2ccccc2)Oc2ccc(Cl)cc2S(=O)(=O)N1Cc1cccc(Cl)c1	24.9
CN1C(=O)c2cc(NC(=O)c3ccccc3F)ccc2OC[C@H]2O[C@@H](CC(=O)NCc3ccc4c(c3)OCO4)CC[C@H]21	10.3[16.7 µM]
Cc1ccc(S(=O)(=O)Nc2cccc3c2O[C@H](CN(C)C(=O)Nc2cccc4ccccc24)[C@@H](C)CN([C@H](C)CO)C3=O)cc1	-2.1[16.7 µM]
Cc1noc(C)c1S(=O)(=O)Nc1ccc2c(c1)C(=O)N([C@@H](C)CO)C[C@H](C)[C@@H](CN(C)Cc1ccc(C(F)(F)F)cc1)OCCCC[C@@H](C)O2	-38.6[16.7 µM]
CNC[C@@H]1OCCCC[C@@H](C)Oc2ccc(NS(=O)(=O)c3ccc(OC)cc3)cc2C(=O)N([C@@H](C)CO)C[C@H]1C	5.6[16.7 µM]
C[C@@H]1CCCCO[C@H](CN(C)S(=O)(=O)c2ccc(Cl)cc2)[C@@H](C)CN([C@@H](C)CO)C(=O)c2cc(N(C)C)ccc2O1	-15.1[16.7 µM]

Next section
SMILES	Env fusion inh
Cc1noc(C)c1S(=O)(=O)Nc1ccc2c(c1)C(=O)N([C@H](C)CO)C[C@@H](C)[C@H](CN(C)C(=O)Nc1ccc(F)cc1)O2	10.3[16.7 µM]
CCC(=O)N(C)C[C@H]1Oc2cc(C3=CCCCC3)ccc2S(=O)(=O)N([C@@H](C)CO)C[C@H]1C	18.5[16.7 µM]
CCCNC(=O)Nc1ccc2c(c1)C(=O)N(C)C[C@@H](OC)[C@@H](C)CN(Cc1ccccn1)[C@@H](C)CO2	-2.4[16.7 µM]
COc1ccc(CN2C[C@@H](C)[C@@H](OC)CN(C)C(=O)c3cc(NC(=O)C4CC4)ccc3OC[C@H]2C)cc1	-34.7[16.7 µM]
Cc1cc(Br)cn2c(Cc3cccc(F)c3)c(-c3ccco3)nc12	-14.2
O=S1(=O)N[C@H](Cc2ccccc2)COc2cccc(N3CCCC3)c21	-20.7
COC(=O)C1=C(C)NC(=S)NC1c1ccc(OC)cc1 (stereo not given)	-9.0
CN1C(=O)c2cc(NC(=O)Cc3cccs3)ccc2OC[C@@H]2O[C@H](CC(=O)NCCCN3CCOCC3)CC[C@@H]21	-6.1[16.7 µM]
Cc1noc(C)c1NC(=O)N(C)C[C@@H]1OCCCC[C@@H](C)Oc2ccc(N(C)C)cc2C(=O)N([C@H](C)CO)C[C@@H]1C	-3.1[16.7 µM]
C[C@H](CO)N1C[C@H](C)[C@H](CN(C)Cc2cccc(C(F)(F)F)c2)OCc2cnnn2CCCC1=O	18.0[16.7 µM]
COc1ccc(NC(=O)N(C)C[C@@H]2Oc3c(NC(=O)c4cc(C)nn4C)cccc3C(=O)N([C@@H](C)CO)C[C@H]2C)cc1	3.8[16.7 µM]
CO[C@@H]1CN(C)C(=O)c2cc(NC(=O)C3CC3)ccc2OC[C@@H](C)N(C(=O)CN2CCOCC2)C[C@@H]1C	-3.0[16.7 µM]
COc1ccc(S(=O)(=O)N(C)C[C@@H]2Oc3ccc(NS(=O)(=O)c4ccc(F)cc4)cc3CC(=O)N([C@H](C)CO)C[C@H]2C)cc1	-4.6[16.7 µM]
N#Cc1ccc(S(=O)(=O)NC(=O)[C@H]2O[C@@H](n3ccc(=O)[nH]c3=O)[C@H](O)[C@@H]2O)cc1	3.0
COc1cccc(C2NC(=S)NC(C)=C2C(C)=O)c1 (stereo not given)	-58.4
C[C@H](CO)N1C[C@H](C)[C@@H](CN(C)Cc2ccc(-c3ccccc3)cc2)Oc2ccc(NC(=O)CCN3CCOCC3)cc2CC1=O	-2.7[16.7 µM]
C[C@H](CO)N1C[C@H](C)[C@@H](CN(C)C)Oc2ccc(NC(=O)C3CC3)cc2CC1=O	3.8[16.7 µM]
O=C(O)C[C@@H]1C=C[C@@H](NC(=O)c2ccccc2F)[C@@H](CO)O1	1.7[16.7 µM]
Cc1ccc(S(=O)(=O)N[C@H]2CC[C@@H](CC(=O)N3CCc4ccccc4C3)O[C@H]2CO)cc1	7.8[16.7 µM]
C[C@@H]1CN([C@@H](C)CO)C(=O)Cc2cc(NC(=O)C3CC3)ccc2O[C@@H]1CN(C)Cc1ccc(Cl)c(Cl)c1	-11.9[16.7 µM]
COc1cccc(CNC(=O)[C@H]2CCCN2C(=O)[C@H]2CCCN2C(=O)c2cccc(Cl)c2)c1	-10.3
COc1cccc(S(=O)(=O)N2CC3(CN[C@@H](CO)c4c3c3ccc(OC)cc3n4C)C2)c1	29.9[16.7 µM]
CO[C@@H]1CN(C)C(=O)c2cc(C#N)ccc2OC[C@H]2O[C@H](CC[C@H]2OC)CCN(C)C(=O)[C@H]1C	-1.9[16.7 µM]
COC(=O)C[C@@H]1CC[C@@H]2[C@H](COc3ccc(NC(=O)c4ccccc4F)cc3C(=O)N2C)O1	42.1[16.7 µM]
CCCNC(=O)N1CCC2(CC1)CN(Cc1cccc(F)c1)[C@H](CO)c1[nH]c3cc(OC)ccc3c12	-178.9[16.7 µM]
COc1ccc(S(=O)(=O)Nc2cccc3c2O[C@H](CN(C)Cc2ccc(Cl)c(Cl)c2)[C@H](C)CN([C@H](C)CO)C3=O)cc1	9.6[16.7 µM]
CN(Cc1cnc2nc(N)nc(N)c2n1)c1ccc(C(=O)NC(CCC(=O)O)C(=O)O)cc1C(F)(F)F (stereo not given)	1.9
CO[C@H]1CN(C)C(=O)c2cc(NC(C)=O)ccc2OC[C@H](C)N(C(=O)c2cnccn2)C[C@@H]1C	7.8[16.7 µM]
C[C@H](CO)N1C[C@H](C)[C@@H](CN(C)C(=O)Nc2ccnc(N3CCOCC3)c2)OCc2ccccc2-c2ccccc2C1=O	9.4[16.7 µM]

Gathered by group: those above containing a COOH group.
SMILES	Env fusion inh
O=C(O)C[C@@H]1C=C[C@@H](NC(=O)c2ccccc2F)[C@@H](CO)O1	1.7[16.7 µM]
CN(Cc1cnc2nc(N)nc(N)c2n1)c1ccc(C(=O)NC(CCC(=O)O)C(=O)O)cc1C(F)(F)F (stereo not given)	1.9
